# Compound activity as filed in PubChem BioAssay.
# 2A StopGo: lowers the luciferase signal of an FMDV 2A StopGo reporter; human cells with a luciferase reporter of 2A StopGo recoding; control for the full effect not named in the record; Potency, µM (highest dose often 57.9 µM), without a hit: top-dose signal change, negative = less light; 410,000 compounds, 1.2% hits; active = well fitted falling curve with a large enough effect; inconclusive = small, poorly fitted or top-dose-only effect; inactive = no such curve, though single readings can be large or run the other way; tested in HEK293T cells; also: % is scaled to controls: 0 for no effect and ±100 for the full control effect; nearly all actives have a fitted effect of over 45% in size; luciferase light after 4 h
# RE007 growth inh: less growth of the S. pombe RE007 Vpr strain; S. pombe RE007 Vpr strain, BacTiter-Glo ATP luminescence, 24 h; control for the full effect not named in the record; Potency, µM (titrated, usually from 92.2 µM), without a hit: at the top dose activity change, negative = less growth; 360,000 compounds, 0.21% hits; AID 651644; active = well fitted falling curve with a large enough effect; inconclusive = small, poorly fitted or top-dose-only effect; inactive = no such curve, though single readings can be large or run the other way;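 also: % is scaled to controls: 0 for no effect and ±100 for the full control effect; nearly all actives have a fitted effect of over 50% in size; the assay follows cell death caused by Vpr and the record does not say whether a fall means rescue or toxicity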
#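 Fission yeast strain RE007, carrying one chromosomally integrated HIV-1 vpr copy, was seeded at OD 0.01 in PMG+AL medium with 23 nL pinned compound. After 24 h at 30 °C and 99% humidity, viability was read by BacTiter-Glo luminescence.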
# NS1 function inh: inhibitors of influenza NS1 protein function; S. cerevisiae slowed by influenza A NS1, growth recovery by OD600; Potency, µM (doses to about 46.1 µM), for inactives: at the top dose activity, positive = more growth; 270,000 compounds, 0.4% hits; also: actives are rising curves; nearly all actives have a fitted effect of over 50% in size
#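 Read-out: OD600 growth recovery of NS1-expressing budding yeast. Cells grown overnight at 30C in -URA glucose medium, washed, resuspended and diluted 1:100 in 2% galactose assay medium, pH 6.0. Same strain lacking NS1 served as positive control.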
# Cruzain noTriton: blocks cruzain activity in detergent-free assay; P25779; purified cruzain, Z-FR-AMC fluorescence, no detergent; Potency, µM, for inactives: max response, negative = inhibition, usual class: inhibitors; 200,000 compounds, 2.3% hits; AID 1476; active = well fitted curve in the direction sought with a large enough effect; inconclusive = small, poorly fitted or top-dose-only effect, or another doubt; inactive = no such curve, though single readings can be large; an effect the other way counts as inactive or inconclusive;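 also: plate controls were enzyme without inhibitor for no effect and buffer without enzyme for full effect; nearly all actives have a fitted effect of over 40% in size; top concentration of the series not given in the record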
# Target sequence (P25779 123-467 limits assumed): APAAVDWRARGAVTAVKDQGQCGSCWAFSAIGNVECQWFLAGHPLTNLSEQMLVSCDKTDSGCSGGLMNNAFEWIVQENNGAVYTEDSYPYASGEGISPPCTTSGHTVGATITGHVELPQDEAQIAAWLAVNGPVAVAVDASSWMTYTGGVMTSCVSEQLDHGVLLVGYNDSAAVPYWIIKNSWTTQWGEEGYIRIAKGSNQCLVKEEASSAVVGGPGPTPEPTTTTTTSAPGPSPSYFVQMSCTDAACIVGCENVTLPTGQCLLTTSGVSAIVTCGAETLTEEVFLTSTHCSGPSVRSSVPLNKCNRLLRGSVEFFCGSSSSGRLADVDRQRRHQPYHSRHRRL
#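 Purified cruzain at 1.5 nM, pre-incubated 15 min with compound at room temperature in 100 mM sodium acetate pH 5.5, 5 mM DTT, 0.00005% Triton X-100. Reaction started with 2 uM Z-FR-AMC; AMC fluorescence increase over 60 s gives rate.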
# Cruzain inh Det: inhibitors of Trypanosoma cruzi cruzain with detergent. Potency, µM, for the others: max response, negative = inhibition, most hits filed as inhibitors. P25779. 200,000 compounds, 0.43% hits. purified cruzain, Z-FR-AMC fluorescence, 0.01% Triton; active = well fitted curve in the direction sought with a large enough effect; inconclusive = small, poorly fitted or top-dose-only effect, or another doubt; inactive = no such curve, though single readings can be large; an effect the other way counts as inactive or inconclusive;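 also: plate controls were neutral wells for no effect and buffer without enzyme for full effect; nearly all actives have a fitted effect of over 40% in size; top concentration of the series not given in the record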
#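 In this qHTS format, compounds are incubated with 1.5 nM cruzain for 15 min at room temperature before 2 uM Z-FR-AMC is added. Release of AMC is followed at 360/450 nm, and progress is taken as the 60 s fluorescence difference.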
# SARS PLpro yeast: blocks SARS-CoV papain-like protease in a yeast assay; S. cerevisiae expressing SARS-CoV PLpro, growth rescue; control for the full effect not named in the record; Potency, µM (series often up to 32.9 µM), without a hit: at the top dose activity, positive = growth rescue; 330,000 compounds, 0.19% hits; AID 485353; also: 0% is about no effect; nearly all actives have a fitted effect of over 55% in size; growth read by luminescence after 48 h
# Lassa entry inh: blocks Lassa virus binding to or entry into cells | Lassa virus pseudotype entry inhibition, cell reporter; control for the full effect not named in the record | Potency, µM (top dose mostly 37.9 µM), for inactives: at the top dose activity change, negative = inhibition, hits mostly inhibitors | 300,000 compounds, 1.2% hits; active means well fitted inhibition curve with a large enough effect; inconclusive means small, poorly fitted or top-dose-only effect, or effect the other way; inactive means flat fitted curve, though single readings scatter; tested in HEK293 cells; also: % is scaled to controls: 0 for no effect and ±100 for the full control effect; nearly all actives have a fitted effect of over 50% in size; luciferase read-out
# MARV entry inh: Marburg virus entry inhibition; Marburg virus pseudotyped entry inhibition, cell reporter; control for the full effect not named in the record; about a third of the inactives were read at about 46 µM; Potency, µM (doses to about 37.8 µM), without a hit: top-dose activity change, negative = inhibition, most hits filed as inhibitors; 300,000 compounds, 1.8% hits; active = well fitted inhibition curve with a large enough effect; inconclusive = small, poorly fitted or top-dose-only effect, or effect the other way; inactive = flat fitted curve, though single readings scatter; tested in HEK293 cells; about a fifth of its hits are not listed in these tables; also: % is scaled to controls: 0 for no effect and ±100 for the full control effect; luciferase read-out
# Starred values were filed as active, the others as inactive; u = inconclusive; x = not tested or not shown; & = joins results of further samples; [ ] = another dose, or the depositor's remark. Unless noted, calls follow the shape of the dose curve; as a rule, active means well fitted rising curve with a large enough effect; inconclusive means small, poorly fitted or top-dose-only effect; inactive means no such curve, though single readings can be large or run the other way. Potency is read from the fitted curve at half-maximal effect.
SMILES,2A StopGo,RE007 growth inh,NS1 function inh,Cruzain noTriton,Cruzain inh Det,SARS PLpro yeast,Lassa entry inh,MARV entry inh
O=C1CNC(=S)N1CCc1ccc(Cl)cc1,-23%,-12%,6%,x,x,-2%,-15%[46.1 µM],u
COC(=O)c1cc(C(=O)OCC(=O)NNC(=O)c2cccs2)cc([N+](=O)[O-])c1,-14%,-12%,x,x,x,3%,1%,-11%[46.1 µM]
COc1ccccc1NS(=O)(=O)c1cc(NC(=O)COc2ccccc2)ccc1N1CCOCC1,57%[activator],-4%,x,x,x,-3%,-18%,u
COc1ccc(-c2nc(S(=O)(=O)c3ccccc3)c(N3CCC(C)CC3)o2)cc1,16%,x,x,13%,-1.9%,x,u,1%[46.1 µM]
COc1cccc(CN2CC(C(=O)N(C)CCc3ccccc3)CCC2=O)c1 (configuration not stated),5%,0%,8%,x,x,-2%,x,x
Cc1ccc(NC(=O)CSc2nc(-c3ccco3)nc3cc(=O)[nH]n23)cc1,-4%,x,x,2%,-0.1%,x,19%[46.1 µM],x
O=S(=O)(CC(O)CS(=O)(=O)c1ccc(Cl)cc1)c1ccccc1 (configuration not stated),-12%,16%,3%,x,x,1%,x,x
CCN(CC)CCNC(=O)c1sc2ncn(CC(=O)Nc3ccc(C)c(Cl)c3)c(=O)c2c1C,-2%,-6%,x,x,x,0%,u,u
Cc1c(Cl)cccc1NC(=O)c1nc(C)n(-c2cc(OC(C)C)c(Cl)cc2Cl)n1,-21%,18%[3.69 µM],13%,0%,1.4%,-29%,3%,u
CCOc1ccc2nc(N3C(=O)CNC3=S)sc2c1,-55%,u,-38%,x,x,-3%,u,u
CN(C)CCNc1ncnc2c1sc1nc(-c3ccccc3)c3c(c12)CCCC3,u,30%,3%,x,x,-2%,u,10µM*
COc1cc2[nH]c(C(=O)NCC3CCCO3)cc2c(OC)c1OC (configuration not stated),10%,-11%,-4%,x,x,1%,-24%[46.1 µM],10%[46.1 µM]
Cc1cccc(N(CC(=O)NCCSc2nc3ccccc3s2)S(=O)(=O)c2ccccc2)c1,x,x,-3%,1%,-5.7%,2%,x,-7%
Cc1ccc(C(c2sc3nc(-c4ccco4)nn3c2O)N2CCC3(CC2)OCCO3)cc1 (configuration not stated),5%,x,x,u,-2.4%,x,7%[46.1 µM],x
Cc1c(CC(=O)N[C@@H](C)C(=O)O)c(=O)oc2c(C)c3occ(-c4ccccc4)c3cc12,-4%,21%,4%,x,x,-1%,13%[46.1 µM],12%[46.1 µM]
C/C(CC(=O)N1CCN(C=O)CC1)=N\NC(=O)c1ccc([N+](=O)[O-])cc1,6%,-3%,-32%,x,x,1%,x,x
COc1ncccc1C(=O)N1CCCC(N2CCN(c3cccc(Cl)c3)CC2)C1 (configuration not stated),21%,-3%,-5%,x,x,2%,x,x
COCCCn1c(SCC(=O)Nc2ccc(OC)cc2)nc2c(sc3ccccc32)c1=O,9%,x,x,-3%,1.4%,x,-27%[46.1 µM],x
NCCCC[C@H]1CNC(=O)C(=O)N1CCCCC1CCCCC1,5%,8%,-1%,x,x,3%,x,x
Cn1cc(C(=O)Nc2ccc(Cl)c(Cl)c2)cn1,11%,-9%,x,x,x,x,u,u
COc1ccc(CCNC(=S)Nc2cccc(C)c2C)cc1,21%,-2%,-59%,-6%,-2.3%,u,-14%,-21%
Cc1cc(Cl)ccc1OCC(=O)N(Cc1ccco1)C1CCS(=O)(=O)C1 (configuration not stated),-19%,9%,-4%,x,x,0%,x,x
CN(C)CCCN1C(=O)CSC1c1ccccc1 (configuration not stated),-11%,-5%,2%,1%,-0.8%,9%,x,x
CCOC(=O)C1=C(C)OC(N)=C(C#N)C1c1ccc(OC)c(C)c1OC (configuration not stated),-4%,-9%,1%,13%,-7.4%,15%,-2%,-2%
CC(C)(C)NC(=S)Nc1cccc(C(F)(F)F)c1,-28%,11%,13%,x,x,17%,x,u
# Continuation.
SMILES,2A StopGo,RE007 growth inh,NS1 function inh,Cruzain noTriton,Cruzain inh Det,SARS PLpro yeast,Lassa entry inh,MARV entry inh
O=C(c1nn2c(C(F)(F)F)cc(-c3cccs3)nc2c1Cl)N1CCCc2ccccc21,16%,12%,1%,u,-3.1%,-2%,u,u
COc1cccc(N2CCN(C(=O)CCc3nnc4ccc(N5CCOCC5)nn34)CC2)c1,-8%,-7%,22%,x,x,2%,x,x
CCCCNC(=S)Nc1ccc(Oc2ccccc2)cc1,11%,-4%,-58%,x,x,-5%,16%[46.1 µM],17%[46.1 µM]
Cc1ccc(C(C(=O)NCc2ccco2)N(C(=O)CNC(=O)c2cccs2)c2ccc(C)cc2C)cc1 (configuration not stated),x,4%,28%,u,5.7%,7%,-27%,u
Cc1ccc(NC(=O)C(=O)Nc2ccccn2)cc1,u,-14%,10%,-21%,-0.2%,-15%,2.9µM*,1.1µM*
N#Cc1c(NC(=O)COC(=O)c2ccc(S(=O)(=O)N3CCCC3)cc2)sc2c1CCCCC2,25%,7%,18%,u,-15%,21%,-1%[46.1 µM],20%[46.1 µM]
Cc1ccc(-c2nc(SCC(=O)NCC3CCCO3)c(-c3ccc(C)cc3)[nH]2)cc1 (configuration not stated),1%&-7%,7%,9%,-1%&1%,-0.2%&-2.5%,-22%,25%[46.1 µM],6%[46.1 µM]
CCOC(=O)Cc1nnc(NC(=O)c2ccco2)s1,7%,2%,-5%,-3%,1.3%,4%,2%,2%
CNCc1c(OCc2ccc(F)cc2)ccc2ccccc12,-18%,1%,1%,x,x,-1%,u,u
Cc1ccc(C(=O)NC(=S)Nn2cnnc2)cc1,6%,-6%,-7%,-8%,-1.5%,15%,8%,6%
NS(=O)(=O)c1ccc(CCNC(=O)C(=O)Nc2cc3c4c(c2)CC(=O)N4CCC3)cc1,-5%,12%,x,x,x,-3%,4%,-4%
O=C(NC1CCCCC1)C(c1cccs1)N(Cc1cccs1)C(=O)c1cccs1 (configuration not stated),-23%,-1%,12%,6%,-3.2%,-18%,-29%,u
CCOC(=O)C(CC)n1cnc2c(nnn2-c2ccc(OC)cc2)c1=O (configuration not stated),11%,2%,-1%,-4%,2.3%,6%,u,-1%
Cc1ccc(C(=O)n2nc(C)c(S(=O)(=O)N3CCCCCC3)c2C)cc1C,4%,x,x,-6%,-1.4%,x,0%[46.1 µM],x
Fc1ccc(-c2cc(-c3nc(-c4ccccc4)no3)[nH]n2)cc1,46%[activator],x,x,-10%,2.1%,x,u,x
COC(=O)c1ccc(NC(=O)Cn2c(=O)nc(-c3ccccc3)c3ccccc32)cc1,-28%,x,x,11%,-0.5%,x,-1%[46.1 µM],x
O=C1[C@H]2CCC=C[C@H]2[C@H](c2ccccc2Br)N1Cc1ccccc1,u,-4%,x,0%,1.3%,-51%,x,x
COc1cc(Br)c(S(=O)(=O)Nc2c(C)n(C)n(-c3ccccc3)c2=O)cc1OC,-6%,-10%,0%,-18%,-2.0%,2%,13%,29%
CC(C(=O)N1CCc2ccccc21)N1CCN(c2cccc(C(F)(F)F)c2)CC1 (configuration not stated),-27%,13%,-27%,x,x,-20%,-11%,u
O=C(c1ccc2ccccc2c1)N1CCN(c2ccc(O)cc2)CC1,33%[activator],6%,u,-22%,1.9%,-5%,-6%,4%
COc1cccc(CSc2nc3n(n2)C(c2cccs2)C(C(=O)Nc2ccccc2C)=C(C)N3)c1 (configuration not stated),-8%,x,x,17%,2.7%,x,-6%[46.1 µM],x
COc1ccc(-c2cc(C(F)(F)F)nc(SCC(=O)Nc3ccc(O)cc3)n2)cc1OC,-9%,x,x,7%,-3.9%,x,-3%[46.1 µM],u
O=C(O)C1CCCN1C(=O)C12CC3CC(CC(C3)C1)C2 (configuration not stated),-4%,14%,-1%,x,x,3%,24%[46.1 µM],2%[46.1 µM]
COc1ccc(NC(=O)CN2C(=O)CSc3ncccc32)cc1,-23%,3%,3%,x,x,0%,x,x
COc1ccccc1Nc1nn2c(=O)c3ccc(C(=O)Nc4ccc(F)cc4)cc3nc2s1,-18%,x,x,-9%,-2.4%,x,-6%[46.1 µM],x
# Additional results follow.
SMILES,2A StopGo,RE007 growth inh,NS1 function inh,Cruzain noTriton,Cruzain inh Det,SARS PLpro yeast,Lassa entry inh,MARV entry inh
COc1cccc(NC(=O)Nc2cccc(C)n2)c1,26%,-5%,-8%,x,x,-2%,u,4%[46.1 µM]
CN(C(=O)CSc1nnc(-c2ccc(OC(F)F)cc2)n1N)C1CCS(=O)(=O)C1 (configuration not stated),-17%,-6%,x,x,x,7%,6%,11%
Cc1cc(C(=O)CN2C(=O)NC3(CCCc4ccccc43)C2=O)c(C)n1Cc1ccco1 (configuration not stated),x,x,0%,u,-2.0%,1%,x,-8%
Cc1ccc(S(=O)(=O)N(C)Cc2ccc(C(=O)NN=C(CC(C)C)CC(C)C)cc2)cc1,-7%,8%,u,16%,-5.1%,-27%,u,u
C/C(CC(=O)Nc1cc(C)ccn1)=N\NC(=O)C(=O)Nc1cccc(C)c1,45%[activator],6%,1%,-15%,-3.2%,-23%,u,36%
CC(C)N1CCN(Cc2nc(-c3ccccc3)cs2)CC1CCO (configuration not stated),5%,0%,-5%,x,x,2%,-7%[46.1 µM],u
CCn1c(SCC(=O)N(C)C)nc2cc(S(=O)(=O)N3CCCCC3)ccc21,7%,12%,x,x,x,2%,5%,7%
Cc1cccc(C)c1OCCCn1c(CCNC(=O)C2CCCCC2)nc2ccccc21,-16%,x,x,7%,3.5µM*,x,u,-17%&-17%[46.1 µM]
CCOc1cc(NC(=O)c2ccco2)c(OCC)cc1NC(=O)c1cc(OC)c(OC)c(OC)c1,-14%,-1%,-11%,u,-4.1%,2%,-28%,u
NS(=O)(=O)c1cccc(NS(=O)(=O)c2ccc(/C=C/C(=O)O)cc2)c1,-8%,18%,5%,x,x,3%,-7%,1%[46.1 µM]
Cc1ccc(S(=O)(=O)N2CCC(C(=O)NCCCN3CCCC3=O)CC2)cc1C,5%,-1%,10%,x,x,4%,u,u
Nc1ccccc1OCCOCCOc1ccccc1N,-12%,2%,5µM*,-3%,3.3%,-7%,u,-28%
Cc1ccc(C)c(N2C(=O)N(Cc3cccc(C(F)(F)F)c3)c3ccccc3S2(=O)=O)c1,-17%,x,x,u,-0.1%,x,u,x
